HNF4A DNA FP = change in binding of human HNF4A to DNA, primary screen, biochemical, fluorescence polarization, FITC-DNA; Hepatocyte nuclear factor 4-alpha (Homo sapiens), P41235; 1 h; activity change, % at 10 µM; actives 0.3% (n = 360,000); in the data active means activity change above about 30%, passing the limit was not always enough;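 further: controls were the assay level and a saturating level of protein; the project sought stronger binding though the title names inhibitors; some compounds called inactive have numbers as strong as hits; positive values seem to mean higher polarization but the record does not say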
LANA-H2A inh = blockers of LANA interaction with H2A/H2B – biochemical, FP readout, HTS, primary screen | Protein LANA1 (Human herpesvirus 8 type P (isolate GK18)), Q9QR71 | cell-free LANA-H2A/H2B peptide, fluorescence polarization | inhibition, % (concentration not given with the values) | actives 0.6% (n = 320,000); in the data active means inhibition mostly above about 10%, no sharp cut-off; inactive means mostly below about 6.7%;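 further: stock transfer was 7.5 nL into about 10 µL; 0% = median of vehicle wells and 100% = median of positive control wells; one replicate is shown; the record names a cut of 25% in any replicate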
Target sequence (Q9QR71 whole entry, looked up): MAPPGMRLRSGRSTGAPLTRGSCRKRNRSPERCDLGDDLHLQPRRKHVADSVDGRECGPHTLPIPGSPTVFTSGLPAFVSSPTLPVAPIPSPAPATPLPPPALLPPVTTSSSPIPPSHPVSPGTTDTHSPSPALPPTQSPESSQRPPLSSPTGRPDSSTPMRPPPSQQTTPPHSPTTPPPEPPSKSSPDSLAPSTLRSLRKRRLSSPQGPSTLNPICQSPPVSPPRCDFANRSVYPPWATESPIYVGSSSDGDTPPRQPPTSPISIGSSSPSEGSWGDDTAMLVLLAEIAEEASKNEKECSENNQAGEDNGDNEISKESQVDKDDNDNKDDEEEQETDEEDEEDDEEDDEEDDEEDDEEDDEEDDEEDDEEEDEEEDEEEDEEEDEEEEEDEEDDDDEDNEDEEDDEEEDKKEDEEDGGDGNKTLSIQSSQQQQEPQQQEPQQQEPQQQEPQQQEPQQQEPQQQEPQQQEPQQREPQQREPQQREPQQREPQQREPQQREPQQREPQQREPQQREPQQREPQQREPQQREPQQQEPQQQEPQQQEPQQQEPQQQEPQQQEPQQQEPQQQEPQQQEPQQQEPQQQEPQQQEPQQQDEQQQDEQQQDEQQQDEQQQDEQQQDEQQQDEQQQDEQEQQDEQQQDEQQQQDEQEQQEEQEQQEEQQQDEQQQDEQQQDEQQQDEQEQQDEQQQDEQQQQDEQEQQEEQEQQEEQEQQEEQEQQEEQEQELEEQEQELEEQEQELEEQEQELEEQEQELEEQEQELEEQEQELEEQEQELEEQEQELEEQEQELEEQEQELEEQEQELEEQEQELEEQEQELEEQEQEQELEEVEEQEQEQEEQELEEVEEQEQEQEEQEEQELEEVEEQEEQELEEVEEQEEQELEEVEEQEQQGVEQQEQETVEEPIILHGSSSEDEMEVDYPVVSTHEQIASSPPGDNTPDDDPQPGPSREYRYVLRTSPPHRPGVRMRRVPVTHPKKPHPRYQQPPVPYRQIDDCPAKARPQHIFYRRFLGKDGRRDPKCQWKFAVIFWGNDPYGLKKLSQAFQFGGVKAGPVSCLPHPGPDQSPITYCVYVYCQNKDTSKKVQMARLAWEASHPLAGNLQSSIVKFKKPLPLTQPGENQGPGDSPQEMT
B2AR ag = beta2AR agonists driving receptor internalization, primary screen, cell-based, FAP fluorogen, flow cytometry | actives 0.43% (n = 340,000) | Am2.2-beta2AR cells; reference of the scale not given here | response, % (concentration not given with the values) | AID 504454, 2011;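 active means response above a set limit, near 3 SD of response in nonfluorescent compounds, cut at about 42% in these data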;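 further: stock transfer was 100 nL into about 11 µL; a reference agonist was the positive control; negative values mostly stem from fluorescent compounds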
ALR H2O2 inh = inhibitors of human ALR sulfhydryl oxidase, primary screen, biochemical, H2O2 detection, HRP-luminol luminescence, single point; actives 3.8% (n = 290,000); purified ALR, DTT oxidation; inhibition, % (concentration not given with the values);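 active means mean and each replicate at 75% or more; inconclusive means only one of the two met; inactive means neither met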;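 further: stock transfer was 7.5 nL into about 7.5 µL; 0% = neutral wells and 100% = wells with inactivated enzyme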
Calb FLC = C. albicans growth inhibition with fluconazole, primary screen, CaCi-2 strain, Alamar Blue fluorescence; C. albicans CaCi-2 (fluconazole-resistant clinical isolate) + fluconazole, 48 h; growth inhibition, % (no concentration beside the values); actives 0.57% (n = 300,000); AID 1979, 2009;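 active means most replicates above 75%; inconclusive means exactly half above 75%; inactive means most below 75%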;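 further: all wells also contain fluconazole at 8 µg/ml as a sub-toxic cotreatment; 0% = median of DMSO wells and 100% = median of geldanamycin control wells; wells of about 8 µL received 7.5 nL stock; the first replicate is given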
Vif A3G = inhibitors of Vif binding to APOBEC3G peptide, primary screen, biochemical, TR-FRET, GST-Vif 1-94, biotin-A3G peptide, dose response retest (AID 1117319). Virion infectivity factor (Human immunodeficiency virus type 1 group M subtype B (isolate …. TR-FRET GST-Vif / biotin-A3G peptide binding; higher % means a stronger effect; test concentration not given here; strong numbers were not always called active. one-dose inhibition, %; IC50 in µM for titrated hits. actives 0.57% (n = 260,000);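 active means above the screen mean plus three standard deviations and confirmed in dose response; inconclusive means results disagree or hit not tested in dose response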;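 further: Vif residues 1-94 fused to GST binding biotinylated APOBEC3G peptide 110-148; 0% = full assay without inhibitor and 100% = GST in place of GST-Vif; retest series ran down from 100 µM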
RanGTP-Impb inh = inhibitors of RanGTP-importin-beta interaction, primary screen, biochemical, FRET, CFP-Ran, YFP-importin-beta, homogeneous; Ran GTPase (GTP-bound) - importin-beta complex; cell-free CFP-Ran/YFP-importin-beta FRET ratio; inhibition, % (test concentration not listed); actives 1.1% (n = 300,000);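 active means most replicates above 15%; inconclusive means exactly half above 15%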;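 further: 0% = DMSO wells and 100% = Ran loaded with GDP instead of GTP; wells of about 40 µL received 100 nL stock; the first replicate is given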
* marks the source's active call; other numbers are inactive results; ? = inconclusive; / = not tested or not shown. This is a random part of the collection; 6.3% or so of the library scored in one or more.

SMILES	HNF4A DNA FP	LANA-H2A inh	B2AR ag	ALR H2O2 inh	Calb FLC	Vif A3G	RanGTP-Impb inh
O=S(=O)(Nc1ccccc1)c1ccc(-c2cnc(C3CC3)o2)cc1	-1.6	-5.8	-4	-7	6	6%	1.1
Cc1noc(/C=C/N(C)C)c1S(=O)(=O)N1CCCC(C(=O)Nc2ccc(F)cc2F)C1 (centres undefined)	1.1	4.9	-1	5	14	4%	-0.2
COc1ccccc1/C=C1\SC(=S)N(CCC(=O)Nc2nnc(C)s2)C1=O	-0.9	4.2	3	-1	-4	/	7.1
CCNC(=O)c1c(O)c2c([nH]c1=O)CCCC2	1.1	1.8	-2	-1	-2	13%	6.5
Cc1nn(-c2ccccc2)nc1C(=O)Nc1ccc2[nH]ncc2c1	-2.9	-1.0	-2	-21	/	0%	1.1
N#Cc1ccc(Oc2ccc(C(N)=O)cc2)cc1C#N	1.0	1.0	6	/	25	-1%	5.1
Cc1ccc2c(c1)C(=O)N(CCCCO)C2=O	-6.0	4.6	84*	-3	-1	6%	3.8
O=C1CC(SC2=NCCS2)C(=O)N1c1ccc(Br)cc1 (centres undefined)	0.0	0.9	0	18	2	-4%	0.4
COCCNC(C)C(=O)C12CC3CC(CC(C3)C1)C2 (centres undefined)	4.0	-4.1	8	-1	-12	>100µM*	6.6
CC(Sc1nncn1C)C(=O)Nc1ccc(Cl)cn1 (centres undefined)	-1.3	-5.8	3	-7	10	/	0.0
CCN(CC)S(=O)(=O)c1cc(Br)ccc1OC	4.5	2.4	-1	-4	-6	3%	3.5
CCC(C)c1c(N)n(S(=O)(=O)c2ccc(C)cc2)oc1=O (centres undefined)	1.3	/	-3	/	/	-9%	/
CC(C)CN(C(=O)COC(=O)Cn1cnc2ccccc2c1=O)C1CCS(=O)(=O)C1 (centres undefined)	1.7	2.1	5	-1	6	10%	-1.3
CCOCCOC(=O)c1[nH]c2c(c1C)C(=O)CC(c1cccs1)C2 (centres undefined)	2.4	-8.3	4	-28	6	0%	-0.9
Cc1ccc(N(CC(=O)N(C)Cc2ccccc2)S(C)(=O)=O)cc1C	-3.8	-7.8	0	-1	-4	5%	-1.0
COc1ccccc1NC(=O)C(=O)NCCC1CCCCN1S(=O)(=O)c1cccs1 (centres undefined)	-5.5	3.8	12	-13	1	1%	3.8
Cc1cnnn1-c1ccc([N+](=O)[O-])cc1	-2.9	-1.3	-5	-7	-1	?	0.0
COc1cc(/C=N\NC(=O)CNC(=O)c2cccc([N+](=O)[O-])c2)ccc1O	-0.9	0.0	-1	99*	2	?	10
Cc1ccc(NC(=O)NC2(C(=O)NCc3ccccc3)CCCCC2)cc1	-2.2	-5.3	5	-2	-24	-1%	6.1
CC(C)(C)OC(=O)N[C@@H](C(=O)OC(C)(C)C)c1ccc(Br)cc1	0.2	4.3	0	-1	/	/	/
O=C(O)c1ccc(N2C(=O)CC(SC(=NCc3ccc4c(c3)OCO4)Nc3ccc(F)cc3)C2=O)cc1 (centres undefined)	0.1	1.0	12	6	-15	/	-0.4
CC(Oc1ccc(Cl)cc1)c1ccnn1S(C)(=O)=O (centres undefined)	-2.4	-1.1	-1	-3	-29	70%	6.5
CC(=O)c1ccc(NC(=O)CCc2nnc3ccc(N4CCCC4)nn23)cc1	-2.5	-3.7	-21	-4	2	/	0.9
COc1ccc(CN2CCc3ccccc3C2)c(OC)c1	-1.3	3.9	-7	/	3	2%	-2.2
CNc1ccccc1NC(=O)CCn1c(=S)oc2ccccc21	2.9	1.6	-7	/	11	-1%	-4.1
COCCCn1c(-c2ccsc2)nc2c1c(=O)[nH]c(=O)n2Cc1ccccc1	2.2	-0.9	-14	-26	37	0%	4.9
Cc1c(F)cccc1NC(=O)CCCCCC1NC(=O)NC1C (centres undefined)	-0.6	-3.6	0	/	4	0.78µM*	2.9
CN(C)S(=O)(=O)c1ccc(N2CCCC2)c(C(=O)NNC(=O)c2ccc(Br)cc2)c1	-0.6	2.4	-8	0	-1	0%	-3.0
O=S1c2ccccc2Oc2ccccc21	3.8	/	-3	/	/	0%	/
Cc1ccc(CNC(=O)CSc2ccc(-c3ccco3)nn2)cc1	-0.8	4.2	-8	-4	-17	/	10
CCC(=O)n1nc(-c2ccc(OC)cc2)nc1SC	2.0	-2.2	-8	4	2	1%	2.3
COc1ccc(/C=C/C(=O)NCCc2c[nH]c3ccccc23)cc1OC	0.3	3.4	4	-4	-2	/	4.4
COc1ccccc1-c1noc(CCC(=O)Nc2cccc(C(F)(F)F)c2)n1	0.3	2.8	-3	0	44	8%	-2.9
CCCN1C2CCCC1CC(NC(=O)c1ccccc1OC)C2 (centres undefined)	-0.9	14	-5	13	-6	/	1.1
CCOC(=O)CSc1ncnc2c(C(=O)OCC)c3n(c12)CCC3	1.3	5.5	0	9	10	/	2.5
S=C(Nc1ccc(Cl)cc1)NN1CCOCC1	0.9	4.5	5	/	-10	8%	-3.9
Cn1ncc2c(Nc3cccc(C(=O)O)c3)ncnc21	-2.1	-2.9	-2	-12	-1	5%	-2.5
CCCNC(=O)C(Cc1cccc(C#N)c1)NC(=O)c1cccc([N+](=O)[O-])c1 (centres undefined)	-4.8	1.3	-8	-2	/	/	/
CCOC(=O)Cc1csc(NC(=O)c2ccc(OC)c(OC)c2)n1	2.0	/	-7	/	-3	-1%	1.4
O=C(Cc1ccc(F)cc1)Nc1ccc(S(=O)(=O)N2CCCCC2)cc1	0.1	-2.2	0	-35	-7	6%	-2.9
Cc1ccc(S(=O)(=O)Nc2ccccc2C(=O)Nc2ccc(S(=O)(=O)Nc3nccc(C)n3)cc2)cc1	3.3	5.0	2	/	-25	-6%	0.6
CCOC(=O)c1sc2nc(C)nc(NCCc3ccccn3)c2c1C	-0.7	3.0	-17	-1	14	6%	3.1
COc1cc(CN2CCC(C)CC2)ccc1OCc1ccccc1	-1.6	3.4	2	-2	-6	/	-2.8
COc1cccc(NC(=O)CN(C)C(=O)CN2C(=O)NC(C)(c3ccc(C)cc3)C2=O)c1 (centres undefined)	4.2	3.3	2	-1	/	-7%	/
CCC1(CC)NC(=O)N(CC(=O)OCC(=O)c2ccccc2OC)C1=O	-4.3	8.8	3	-1	-1	0%	-3.6
COc1cccc(N=c2oc3c(C)ncc(CO)c3cc2C(N)=O)c1	-0.6	-2.1	-2	-11	1	16%	-2.1
N#CC(C#N)=Cc1c(N2CCN(c3ccccc3)CC2)nc2ccccn2c1=O	0.4	3.4	8	5	6	1%	?
CCNC(=O)CSc1nc(-c2ccc(F)cc2)cs1	1.1	-3.6	-19	-7	-2	/	7.6
CN1C(=O)/C(=C/c2cc(N=Nc3ccccc3)ccc2O)SC1=S	-2.1	6.1	19	-11	-2	4%	-2.1
O=C(NC(=S)Nc1ccc(S(=O)(=O)N2CCCC2)cc1)C1CC1	-2.7	-5.7	3	7	3	16%	3.5
Clc1ccc(CNCCC2=CCCCC2)cc1	-3.0	1.5	3	-12	-17	25%	4.6
CCn1c(CC(=O)Nc2ccccc2)nnc1SCc1nc2ccccc2c(=O)[nH]1	3.5	-1.6	-4	1	-3	-9%	6.4
O=C(Nc1ccn(CCCNCc2ccc3[nH]ccc3c2)c(=O)n1)OCc1ccccc1	-0.1	/	5	/	/	-2%	/
CC(=O)N1CCc2cc(S(=O)(=O)NC(C(=O)NC3CCCc4ccccc43)C(C)C)ccc21 (centres undefined)	17	-2.9	-7	0	0	65%	-0.7
O=C(NC1CCCc2c1cnn2-c1cc(F)cc(F)c1)c1ccccn1 (centres undefined)	1.3	2.9	0	/	12	/	1.6
CC(OC(=O)Cn1[nH]c(=O)c2ccccc2c1=O)C(=O)Nc1ccc(Cl)cn1 (centres undefined)	3.1	3.7	-6	-1	/	1%	/
COc1ccc(-c2cc3ccc(OCC(C)=O)cc3oc2=O)cc1OC	4.5	4.4	-3	-5	5	/	4.3
O=C(CCC(=O)NNC(=O)COc1ccccc1)NCc1ccccc1	3.5	-1.0	1	3	-26	?	0.6
CCC(=O)Nc1c2c(nn1-c1ccc(F)cc1)CS(=O)C2 (centres undefined)	4.0	-5.5	-10	2	-11	-4%	-6.9
Cc1ccc(O)c(C(=O)c2cnc3c(c2)c(=O)n(C)c(=O)n3C)c1	-1.6	-7.2	0	-22	-5	1%	2.6

(listing goes on)
SMILES	HNF4A DNA FP	LANA-H2A inh	B2AR ag	ALR H2O2 inh	Calb FLC	Vif A3G	RanGTP-Impb inh
O=C(NCc1ccccn1)c1ccc(CNS(=O)(=O)c2ccc(F)cc2)cc1	0.6	8.5	3	-3	?	/	1.3
Cc1nnc(NC(=O)CCS(=O)(=O)Cc2ccccc2)s1	3.8	-8.4	0	-11	31	/	1.6
COc1ccc(S(=O)(=O)N2CCC(C(=O)NCC(c3cccs3)N(C)C)CC2)cc1 (centres undefined)	-0.2	3.3	3	-19	7	-5%	-4.2
C[C@@H]1CCC(=O)N(C[C@@H](C)CSc2ccccc2)CC1	-0.1	1.3	-9	-3	-18	/	-2.1
CN1CCN(S(=O)(=O)c2ccc(N3CCN(C(c4ccccc4)c4ccccc4)CC3)nc2)CC1	0.0	3.0	17	1	-1	0%	-1.5
N#CC1(NC(=O)CSc2nnc(-c3ccccc3F)o2)CCCCC1	2.8	-1.7	-5	-2	3	2%	0.6
CCn1c(O)c(C=NC2CCCC(C)C2C)sc1=S (centres undefined)	5.0	-7.2	-9	6	-23	/	5.6
COc1ccc(OC)c(C2=NOC(C(=O)Nc3cc(C)nn3-c3ccccc3)C2)c1 (centres undefined)	-0.3	0.4	-1	/	7	2%	7.3
